# MT1-MMP act inh = MT1-MMP (human) activation inhibition; P50281; HT1080 RFP-PRO-GFP cells, GFP/RFP ratio fluorescence, overnight; percent of plate control window, DMSO zero; GFP/RFP ratio change, % at 20 µM; 0.061% of 360,000 active;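 active = GFP/RFP ratio change of at least 30% with cell ATP level not reduced by more than half and red fluorescence within 50% of control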; also: strong numbers were not always called active
#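 Assay system: HT1080 RFP-PRO-GFP cells | Dosing: 20 µM single dose, 1% DMSO | Incubation: Cells overnight before dosing, compound overnight, 37 °C, 5% CO2 | Evaluation: GFP/RFP fluorescence ratio | Control set: DMSO-only wells and HT1080 RFP-L50D-GFP cell wells as references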
# eIF4H FP inh = inhibitors of RNA binding by human eIF4H | inhibition, % at 35 µM | 0.94% of 290,000 active | eIF4H fluorescence polarization binding assay;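 active = 50% or more with normal probe brightness, or confirmed in later tests; inconclusive = above 50% with abnormal brightness, or retests that disagree; inactive = below 50% or failed in later tests; about a fifth of its hits are not listed in these tables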;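 also: calls also rest on retests at 20 µM and on dose response follow-up; 0% = protein and probe with vehicle and 100% = probe without protein; strong numbers were not always called active; many hits fall short of the cut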
# PABP polyA inh = PABP-poly(A) binding inhibition; 1% of 290,000 active; P11940; PABP-poly(A) RNA binding, fluorescence polarization; inhibition, % at 35 µM;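 active = 50% or more with normal probe brightness, or confirmed in later tests; inconclusive = above 50% with abnormal brightness, or retests that disagree; inactive = below 50% or failed in later tests; about a fifth of its hits are not listed in these tables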;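 also: calls also rest on retests at 20 µM and on dose response follow-up; controls were probe without protein and protein plus probe with vehicle; some compounds called inactive have numbers as strong as hits; many hits fall short of the cut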
# Target sequence (P11940 whole entry, looked up): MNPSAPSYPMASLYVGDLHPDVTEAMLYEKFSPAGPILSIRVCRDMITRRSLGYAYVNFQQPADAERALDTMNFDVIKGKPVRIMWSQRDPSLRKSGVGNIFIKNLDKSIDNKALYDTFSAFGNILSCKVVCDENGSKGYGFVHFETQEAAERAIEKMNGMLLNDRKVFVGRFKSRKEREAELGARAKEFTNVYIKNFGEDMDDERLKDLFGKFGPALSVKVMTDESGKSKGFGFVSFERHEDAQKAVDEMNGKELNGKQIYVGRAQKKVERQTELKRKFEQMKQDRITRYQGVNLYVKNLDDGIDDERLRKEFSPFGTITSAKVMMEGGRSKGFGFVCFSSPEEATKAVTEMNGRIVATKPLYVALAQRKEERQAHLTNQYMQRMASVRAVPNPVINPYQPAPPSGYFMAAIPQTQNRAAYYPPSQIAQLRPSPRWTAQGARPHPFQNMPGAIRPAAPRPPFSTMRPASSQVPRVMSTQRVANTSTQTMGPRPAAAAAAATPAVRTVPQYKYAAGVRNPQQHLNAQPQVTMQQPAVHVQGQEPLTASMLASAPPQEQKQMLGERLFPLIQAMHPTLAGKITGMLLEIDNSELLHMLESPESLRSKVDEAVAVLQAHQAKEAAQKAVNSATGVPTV
# Rce1 inh = blocks yeast Ras-converting enzyme; 0.27% of 290,000 active; yeast membranes, quenched prenylated peptide cleavage fluorescence; AID 2563; calls only;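 active = fall in fluorescence gain of 50% or more versus controls, with final raw signal at or below 3038400; inconclusive = same 50% fall but final raw signal above 3038400; inactive = fall in fluorescence gain under 50%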;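 also: plate controls were neutral control wells for no effect and wells lacking membranes for full effect; tested at 10 µM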
# UUG fidelity = modulators of start codon recognition fidelity in yeast; S. cerevisiae UUG-firefly luciferase reporter, luminescence/redox ratio; activity score, % at 18.7 µM; 0.13% of 350,000 active;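 active = replicate mean at a twofold rise or more, about +100% in these data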;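 also: firefly luciferase made from a UUG start codon reports start codon fidelity; reporter light over untreated wells divided by growth signal over untreated wells; some hits fall short of that in this replicate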
# CSC inhib = cancer stem cell inhibition; cancer stem cell-like cells viability, luminescence; inhibition, % at 7.5 µM; 1.1% of 300,000 active; AID 2717;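 active = mean at 75% or more and at least half the replicates too; inconclusive = mean and replicates disagree; tested in HMLE shEcad cells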;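 also: 0% = median of negative and 100% = median of positive control wells; the first replicate is given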
# Env fusion inh = inhibitors of HIV Env-mediated cell fusion; HeLa-JRFL Env/CEM21 cell fusion, luciferase; inhibition, % at 12.3 µM; 1.1% of 360,000 active;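 active = mean replicate inhibition score of at least 50 and every replicate individually at or above 50; inconclusive = only one of the two criteria met; inactive = mean below 50 and not all replicates reaching 50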;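 also: 0% = plate neutral controls and 100% = maraviroc near 300 nM; one replicate is shown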
# eIF4H FP inh retest = second read-out of eIF4H FP inh, no call of its own (marks repeat the call); inhibition, %; compound at 20 µM; confirmation average;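 mean of two retest wells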
# PABP polyA inh retest = recorded beside PABP polyA inh, whose call it bears; inhibition, %; compound at 20 µM; confirmation repeats;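 mean of two retest wells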
# MT1-MMP act inh RFP = second read-out of MT1-MMP act inh, no call of its own (marks repeat the call); RFP signal change, %; measured here: RFP expression control read;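 0 = vehicle wells; hits needed this value within 50% of zero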
# Numbers without * were called inactive; i = inactive; ? = inconclusive; nt = no result given.
SMILES,MT1-MMP act inh,MT1-MMP act inh RFP,eIF4H FP inh,PABP polyA inh,Rce1 inh,UUG fidelity,CSC inhib,Env fusion inh,others
COc1cccc(OCCNS(=O)(=O)c2cccc([N+](=O)[O-])c2)c1,2.3,5.4,-2.5,16.2,i,-30.0,4.5,-6.7,
Cc1ccc(S(=O)(=O)CCSc2nc(C)cc(C(F)(F)F)c2C#N)cc1,-21.4,-7.9,83.0*,1.4*,i,-12.9,-2.2,nt,eIF4H FP inh retest=72.2*;PABP polyA inh retest=70.7*
OC12CCCCC1C(c1ccc3c(c1)OCO3)N(Cc1cccc(F)c1)CC2 (stereo unspecified),-0.6,-2.4,-2.1,0.7,i,1.2,nt,nt,
CC1CC1C(=O)OCC(=O)NCc1ccccc1 (stereo unspecified),-3.7,-2.0,nt,nt,nt,-17.8,4.7,nt,
CCc1ccc(OCCOCCN2CCN(C)CC2)cc1,-5.1,-1.5,-4.3,4.4,nt,-22.3,58.0,-1.0,
O=c1[nH]c(COc2ccccc2)nc2ccccc12,3.1,0.8,-7.1,-3.5,i,4.2,5.7,-50.3,
CCN(C(=O)CN1C(=S)NC(C)(C)CC1C)c1ccc(C)c(C)c1 (stereo unspecified),-1.5,-0.7,-7.4,-4.6,i,-33.4,-12.2,-5.2,
CC1CCN(C(=O)COC(=O)c2cc(S(=O)(=O)N3CCOCC3)ccc2Cl)CC1,3.5,-1.6,nt,nt,i,-17.6,10.5,5.2,
CN1CCN(C(=S)Nc2ccc(Cl)c(Cl)c2)CC1,4.4,0.8,4.2,-0.6,i,15.0,17.0,nt,
COCCN1Cc2cccc(C(=O)NCc3cccnc3)c2C1=O,0.6,4.9,4.8,0.4,i,-12.2,-13.8,-15.1,
CCc1ccc(NC(=O)c2sc3nc4n(c(=O)c3c2C)CCC4)cc1,5.4,-4.7,-11.3,-0.6,i,-13.1,7.9,-19.8,
CC(Nc1ccc2c(c1)OCCO2)C(=O)N1CCc2ccccc21 (stereo unspecified),5.0,-1.4,4.2,8.0,i,nt,0.3,-6.9,
CN(C)c1ccc(C#Cc2ccc3cc(CCO)oc(=O)c3c2)cc1,4.1,0.7,nt,nt,nt,-12.4,2.4,nt,
CCCCNC(=O)COC(=O)c1ccc(C)c(NC(=O)c2ccco2)c1,-2.8,2.3,-1.1,23.1,i,nt,2.3,-5.7,
O=C(c1cccs1)N1N=C(c2ccccc2)CC1c1ccccc1O (stereo unspecified),-0.6,-0.3,-13.1,-9.2,i,nt,4.4,-11.7,
COCc1ccc(C(=O)N2CCCC(N(C)Cc3ccccc3)C2)s1 (stereo unspecified),0.8,2.7,-3.5,1.3,i,4.9,-7.0,26.0,
Cc1ccccc1NC(=S)NCc1cccn1C,4.0,4.3,-1.2,0.3,i,nt,-14.4,-58.6,
O=C1N=c2ccccc2=C1c1sc(NS(=O)(=O)Cc2ccccc2)nc1O,6.1,2.6,3.0,44.4,i,-13.6,-10.7,2.1,
C/C(=N/NC(=O)CCC(=O)Nc1ccc(Br)cc1)c1ccc(Br)cc1,1.2,-2.6,-2.7,4.7,i,-11.1,-1.7,0.3,
O=[N+]([O-])c1ccccc1CSc1nnc2ccccn12,-1.8,2.0,-0.2,4.2,i,nt,2.5,15.7,
NC(=O)c1nnn(-c2nonc2N)c1-c1ccc([N+](=O)[O-])cc1,-3.3,2.3,-5.8,-7.6,nt,nt,-16.8,13.5,
NC(=O)c1c(C(F)(F)F)cc(-c2ccccc2)nc1NCCO,1.7,-4.0,1.5,0.5,i,-0.2,-10.1,-33.9,
O=C(Nc1cccc(Cl)c1)c1ccc2c(=O)n3c(nc2c1)CCCCC3,1.3,-10.7,2.6,9.9,i,-34.8,nt,nt,
N#C/C(C(=O)NCc1ccccc1)=C1/N=C(NC(=O)c2ccco2)c2ccccc21,-12.6,-2.8,-21.4,-0.6,i,-4.0,14.6,-57.3,
CC1(C)Cc2cccc(OCC(=O)Nc3cc(C(F)(F)F)ccc3N3CCOCC3)c2O1,-0.6,1.0,12.7,0.7,i,-15.2,-3.5,27.5,
NS(=O)(=O)c1ccc(CCNC(=O)CSc2nc3ccsc3c(=O)n2CC2CCC(C(=O)O)CC2)cc1 (stereo unspecified),4.0,7.4,0.3,9.1,i,nt,3.0,-2.7,
CCNC(=O)Nc1ccc(S(=O)(=O)Nc2cnc(C)nc2C)cc1,-1.4,1.2,9.7,9.8,i,-20.4,1.0,-1.1,
CNc1nccc(-c2ccc(F)cc2)c1C#N,2.6,4.3,-1.5,-2.6,i,-17.9,-4.3,6.2,
O=C(COc1ccc(F)cc1)NCC1(N2CCOCC2)CCCCC1,-4.5,0.6,nt,nt,nt,2.6,1.1,25.1,
O=c1oc2ccccc2cc1-c1cn(-c2ccccc2)c(=S)[nH]1,2.0,-3.3,9.4,-13.7,i,nt,73.8,6.2,
O=C(N/N=C/c1ccccn1)C1CC1,7.2,6.6,-10.2,6.0,i,-13.3,12.3,-9.9,
CCCCS(=O)(=O)N1CCC(C(=O)Oc2ccccc2OC)CC1,0.4,-8.6,-3.7,2.8,i,8.6,6.0,-7.0,
COc1ccccc1N(CC(=O)Nc1ccc(F)c(F)c1)S(C)(=O)=O,2.1,2.0,0.9,6.5,i,-6.1,-7.0,2.8,
CCn1ncc(/C=N\NC(=O)COc2ccccc2)c1C,1.7,-0.7,-4.2,41.7,i,nt,-6.9,1.0,
CS(=O)(=O)N1CCCCC1c1cc(C(=O)Nc2cccc3c2CCCC3)no1 (stereo unspecified),-2.5,-4.1,nt,nt,nt,-4.0,nt,-12.1,
O=C(O)C1CCC(N2C(=O)c3cccc([N+](=O)[O-])c3C2=O)CC1 (stereo unspecified),-3.6,0.5,1.6,-0.4,i,-20.1,-2.9,16.0,
N#Cc1nc(Cc2cccc3ccccc23)oc1NCc1ccc2c(c1)OCO2,-1.5,-5.9,-4.3,5.1,i,-18.3,-2.5,nt,
O=C(Nc1ccccc1Cl)C1(c2ccccc2)CC1(Cl)Cl (stereo unspecified),-0.9,-2.0,5.1,-3.2,i,nt,-20.5,18.4,
Cn1c(CCC(=O)Nc2ccc(S(C)(=O)=O)cc2)nc2cc(S(=O)(=O)N3CCOCC3)ccc21,-3.8,4.7,nt,nt,nt,-5.8,nt,9.3,
COc1ccccc1NS(=O)(=O)c1ccc2oc(=O)ccc2c1,0.5,-0.3,13.1,-5.0,i,-18.2,-9.7,-6.8,

# 2 consecutive compounds out of the list so far:
SMILES,MT1-MMP act inh,MT1-MMP act inh RFP,eIF4H FP inh,PABP polyA inh,Rce1 inh,UUG fidelity,CSC inhib,Env fusion inh,others
Cn1c(CCC(=O)Nc2ccc(S(C)(=O)=O)cc2)nc2cc(S(=O)(=O)N3CCOCC3)ccc21,-3.8,4.7,nt,nt,nt,-5.8,nt,9.3,
COc1ccccc1NS(=O)(=O)c1ccc2oc(=O)ccc2c1,0.5,-0.3,13.1,-5.0,i,-18.2,-9.7,-6.8,

# The list continues.
SMILES,MT1-MMP act inh,MT1-MMP act inh RFP,eIF4H FP inh,PABP polyA inh,Rce1 inh,UUG fidelity,CSC inhib,Env fusion inh,others
Cc1ccc(OCC(=O)Nc2ccc3c(c2)nc(CCN2CCOCC2)n3C)cc1,10.2,-5.4,2.0,-7.2,i,-20.6,-12.2,-12.1,
Cc1ccc(CSc2nnc(-c3ccccn3)n2Cc2cccs2)cc1,-7.1,-12.9,nt,nt,nt,-16.1,nt,-16.2,
CC1=C(C(=O)Nc2cc(C(=O)NCc3ccccc3)ccc2C)SCCO1,-1.9,6.5,nt,nt,nt,-15.0,nt,-35.6,
CC(NC(=O)C1CCC(CNC(=O)[C@@H]2Cc3ccccc3CN2)CC1)c1ccccc1 (stereo partly specified),-0.9,3.7,-4.5,4.0,i,-23.2,-1.9,5.7,
O=C1/C(=C/C=C/c2ccccc2)Oc2c1ccc(O)c2CN1CCN(CCO)CC1,-18.5,4.8,?,?,i,-8.3,46.5,4.2,
CC(C)(C)C(=O)Nc1nnc(SCC(=O)NC2CCCC2)s1,0.1,-0.3,-3.8,-2.9,i,-23.6,-3.9,-5.4,
CN1C(=O)[C@H]2[C@@H](C3CC3)N3C(=O)CN(Cc4ccc(-c5ccccc5)cc4)C(=O)[C@@]3(C)[C@H]2C1=O,3.9,-3.1,-10.3,11.5,i,-0.2,-14.4,-6.8,
C/C(Cc1ccccc1)=N\NC(=O)CNC(=O)c1ccccc1Br,-5.9,-2.8,-4.0,3.0,nt,nt,0.4,-7.3,
COc1ccccc1N/C=C1/Sc2cc(Cl)ccc2NC1=O,nt,nt,-3.5,?,nt,nt,3.6,-29.3,
C/C(=N\NC(=S)NC1CCCCC1)c1ccc(C)o1,3.9,-5.9,0.7,-3.1,i,-37.4,2.2,4.0,
Cc1ccn2cc(-c3ccc(NS(=O)(=O)c4ccccc4)cc3)nc2c1,3.1,-13.2,-1.7,0.0,i,0.6,-5.2,-7.4,
Cc1c(C)c2cc3c(C)coc3cc2oc1=O,-0.5,1.6,4.3,3.3,i,-18.8,8.1,0.8,
Nc1c(C(=O)NCc2ccc3c(c2)OCO3)nnn1-c1ccc(OC(F)(F)F)cc1,1.9,-9.9,-2.4,-12.1,i,-2.0,18.8,-35.0,
O=C(COC(=O)c1cc(-c2ccc(Cl)s2)nc2ccccc12)NCc1ccco1,-4.5,-1.6,3.1,16.8,i,nt,3.5,nt,
CCCNc1nc2c(c(=O)[nH]c(=O)n2C)n1CCc1ccccc1,-0.7,4.0,9.0,5.9,i,-33.1,-0.9,-31.7,
Nn1c(SCC(=O)Nc2ccc3c(c2)OCO3)nnc1C1CC1,1.6,1.7,3.6,5.5,i,nt,-0.8,2.3,
CC(C)CN(C(=O)CN(C)S(=O)(=O)c1ccc(Cl)cc1)C1CCS(=O)(=O)C1 (stereo unspecified),0.3,-0.9,3.5,-5.1,i,1.3,-0.2,3.3,
COc1ccccc1N1CCN(C(=O)CCN2C(=O)c3cccc4cccc(c34)C2=O)CC1,-3.6,-3.0,6.9,3.4,i,nt,-0.2,-5.2,
CC1CCCCC12NC(=O)N(CC(=O)Nc1cccnc1Cl)C2=O (stereo unspecified),1.8,3.1,-5.2,22.4,i,-16.6,17.0,-5.9,
COC(C[C@@H]1O[C@@H]1[C@@H](O)COCc1ccccc1)OC,1.1,3.4,-9.9,2.2,i,-17.5,nt,31.7,
Cn1ccc2c(N3CCCCCC3)cc3c(c21)C1CCC3C1 (stereo unspecified),1.2,-2.4,nt,nt,nt,-10.8,nt,19.0,
COc1ccccc1C(=O)Nc1nnc(-c2ccccc2)s1,-0.6,1.4,-4.2,-7.9,i,-20.4,-15.5,-25.0,
O=c1[nH]c(COc2ccc(Br)cc2Cl)nc2ccccc12,0.5,-3.1,-15.1,14.0,i,-22.1,4.8,-52.6,
COC(=O)[C@@H]1CC[C@H](C)[C@@H](c2ccc(C)cc2)N1C(=O)c1ccc(/C=N/O[C@H](C)c2cn([C@@H]3COC[C@H]3O)nn2)cc1,nt,nt,1.5,-11.4,i,nt,-9.0,nt,
CCc1cc(/C(Cc2ccccn2)=N\O)c(O)cc1O,5.4,-10.3,-2.9,-1.2,i,-10.9,0.4,nt,
CC(=O)c1cc2c(ccc3ccccc32)oc1=O,-5.1,-1.2,6.2,3.6,i,-7.1,nt,-58.8,
CC(C)c1ccc(/C=N/NC(=O)c2cccc(S(=O)(=O)N3CCOCC3)c2)cc1,5.3,2.2,54.1,-7.7,i,-3.7,1.1,-2.0,eIF4H FP inh retest=-8.3;PABP polyA inh retest=7.8

# Source: PubChem BioAssay
